Compound activity from PubChem BioAssay.
rRNA inh HTS: inhibitors of bacterial rRNA selective over humanized ribosomes. 350,000 tested, 1.6% active. E. coli WT GFP vs humanized-ribosome RFP mutants, fluorescence, 24 h; stronger effect = lower value; DMSO median 0, no signal -100. GFP signal change (wild-type ribosome), % (no concentration beside the values). AID 720706;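 active = significant combined selectivity score with lowered wild-type GFP, culture density cut under 30%, mutant RFP and density less affected; inactive = any of these conditions unmet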; also: one replicate is shown; some compounds called inactive have numbers as strong as hits
UCH37 inh: inhibitors of human deubiquitinating enzyme UCH37; Q9Y5K5; purified proteasome/UCH37, Ub-AMC cleavage fluorescence; inhibition, % (concentration not given with the values); 330,000 tested, 0.33% active; AID 588478;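 active = mean of two replicates above 20%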;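 also: 0% = compound-free wells with enzyme and 100% = wells lacking proteasome; stock transfer was 100 nL into about 20 µL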
Target sequence (Q9Y5K5 whole entry, looked up): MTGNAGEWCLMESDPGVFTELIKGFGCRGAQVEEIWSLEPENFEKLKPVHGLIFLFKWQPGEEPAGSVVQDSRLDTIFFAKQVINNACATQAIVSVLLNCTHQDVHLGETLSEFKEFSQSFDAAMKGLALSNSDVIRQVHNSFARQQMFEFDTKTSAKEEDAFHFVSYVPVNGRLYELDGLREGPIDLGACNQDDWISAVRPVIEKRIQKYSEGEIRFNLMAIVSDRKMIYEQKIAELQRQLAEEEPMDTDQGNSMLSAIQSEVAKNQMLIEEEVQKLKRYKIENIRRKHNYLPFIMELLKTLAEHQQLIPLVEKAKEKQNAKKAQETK
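Schedule: 30 min plus 25 min, room temperature / Material: human UCH37 within purified proteasomes / Technique: AMC fluorescence intensity at 355/460 nm / Buffer or medium: pH 7.4 Tris-HCl (50 mM) with ovalbumin, ATP-MgCl2, DTT / Controls: wells without proteasome as full block, compound-free enzyme plus substrate as uninhibited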
ALR inh: blocks human ALR sulfhydryl oxidase activity. inhibition, % (concentration not given with the values). P55789. 290,000 tested, 3.8% active. AID 485317. purified ALR, DTT oxidation, H2O2 HRP-luminol luminescence;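 active = mean and each replicate at 75% or more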;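 also: stock transfer was 7.5 nL into about 7.5 µL; 0% = neutral wells and 100% = wells with inactivated enzyme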
Target sequence (P55789 whole entry, looked up): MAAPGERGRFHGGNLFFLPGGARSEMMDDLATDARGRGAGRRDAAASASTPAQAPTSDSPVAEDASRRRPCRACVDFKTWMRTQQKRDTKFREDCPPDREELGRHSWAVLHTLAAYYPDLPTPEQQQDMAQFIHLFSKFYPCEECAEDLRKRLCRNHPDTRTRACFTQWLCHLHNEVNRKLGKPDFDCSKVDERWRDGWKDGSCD
FGF22 binding: binders of recombinant human FGF22 by thermal shift. Q9HCT0. SYPRO orange fluorescence; percent of sucrose octasulfate shift, DMSO zero. calls only at 9.99 µM. 340,000 tested, 1.5% active;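 active = melting point raised past a set limit in the mean and every replicate; three in four hits are not shown here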
E coli growth: blocks Escherichia coli growth; OD600, 23 h; stronger effect = lower value; OD600 absorbance (concentration not given with the values); 330,000 tested, 0.21% active; AID 1053175;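 active = OD600 absorbance below the run mean of sample wells minus 3.6 SD, in any replicate, cut at about 0.56 in these data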;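 also: stock transfer was 300 nL into about 60 µL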
Beta2AR agonist: human beta-2 adrenergic receptor agonism by FAP. 340,000 tested, 0.43% active. response, % (no concentration beside the values). Am2.2-beta2AR cells, FAP receptor internalization, flow cytometry; reference of the scale not given here. AID 504454. P07550;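 active = response above a set limit, near 3 SD of response in nonfluorescent compounds, cut at about 42% in these data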;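 also: stock transfer was 100 nL into about 11 µL; a reference agonist was the positive control; negative values mostly stem from fluorescent compounds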
Target sequence (P07550 whole entry, looked up): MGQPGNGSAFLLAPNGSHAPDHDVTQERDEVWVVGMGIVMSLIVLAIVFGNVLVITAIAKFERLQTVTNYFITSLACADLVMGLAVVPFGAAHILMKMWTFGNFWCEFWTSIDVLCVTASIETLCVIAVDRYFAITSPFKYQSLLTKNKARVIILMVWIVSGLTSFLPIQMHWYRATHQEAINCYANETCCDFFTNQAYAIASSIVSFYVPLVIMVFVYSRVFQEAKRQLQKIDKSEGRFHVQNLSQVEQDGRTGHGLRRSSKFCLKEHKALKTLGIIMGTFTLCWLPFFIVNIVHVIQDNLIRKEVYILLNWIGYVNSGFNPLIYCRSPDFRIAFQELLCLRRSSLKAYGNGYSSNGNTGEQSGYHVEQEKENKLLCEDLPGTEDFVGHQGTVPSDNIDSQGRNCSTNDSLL
HNF4A DNA FP: change in binding of human HNF4 alpha to DNA; P41235; HNF4a-FITC DNA binding, fluorescence polarization, 1 h; activity change, % at 10 µM; 360,000 tested, 0.3% active; in the data active = activity change above about 30%, passing the limit was not always enough;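 also: controls were the assay level and a saturating level of protein; the project sought stronger binding though the title names inhibitors; some compounds called inactive have numbers as strong as hits; positive values seem to mean higher polarization but the record does not say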
rRNA inh HTS OD600: also measured in rRNA inh HTS; calls as there; OD600 change, %; measured here: OD600 growth;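 optical density of the mix in the first replicate; 0 = DMSO median and -100 = no signal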
rRNA inh HTS RFP: also measured in rRNA inh HTS; calls as there; RFP signal change, %; measured here: RFP humanized mutant strains;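 first replicate; 0 = DMSO median and -100 = no signal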
Active calls of the source: *; i = inactive; . = not tested or not shown. A portion of the library (hit frequency here may not be typical).

SMILES	rRNA inh HTS	rRNA inh HTS OD600	rRNA inh HTS RFP	UCH37 inh	ALR inh	FGF22 binding	E coli growth	Beta2AR agonist	HNF4A DNA FP
O=C(NCCN1CCC(n2c(=O)[nH]c3ccccc32)CC1)N1c2ccccc2Sc2ccccc21	-36.2*	1.0*	0.0*	.	.	i	.	.	2.1
Cc1c(Cl)cccc1NC(=O)c1cc(S(=O)(=O)N2CCOCC2)cn1C	2.7	-0.3	3.7	2.0	-10.1	i	0.716	6.1	3.0
c1ccc(-c2nc(-c3ccccn3)nc(-c3ccccn3)n2)nc1	10.3	11.7	-0.9	2.2	5.2	.	0.659	-1.1	0.8
C[C@H](NC(=O)c1nc[nH]c1C(=O)N1CCNCC1)C(=O)OC(C)(C)C	17.4	18.2	-7.3	0.2	-1.4	i	0.729	2.5	0.0
CC(=O)Nc1nc(C)c(C(C)(C)C)s1	4.7	-6.3	-1.9	2.2	-0.3	i	0.685	-5.7	-3.3
CCCNC(=O)C1(C)CCN1C(=O)C1(c2ccccc2)CC1 (stereo not drawn)	-0.1	-9.8	0.8	.	.	i	.	.	4.6
C=CCn1c(SCC(=O)Nc2ccc3c(c2)OCO3)nnc1-c1ccccc1OC	.	.	.	1.5	-4.5	.	0.737	3.9	-1.2
COCCN(C(=O)c1cc2c(s1)CCC2)c1c(N)n(CC(C)C)c(=O)[nH]c1=O	7.0	10.3	0.2	5.5	-2.4	i	0.65	-1.4	-12.8
CCN(CC)S(=O)(=O)c1ccc2c(c1)N(CC(=O)NCC1CCCO1)C(=O)CO2 (stereo not drawn)	8.2	7.9	2.5	3.2	-4.4	i	0.7	-1.3	-0.5
O=C1/C(=C\c2ccco2)SC(=S)N1c1ccccc1	.	.	.	2.7	-4.9	.	0.71	-5.9	5.9
COc1cccc(C(=O)NCC(=O)N2CCC3(CC2)NCCc2[nH]cnc23)c1OC	19.4	19.2	0.1	0.2	-10.1	i	0.668	-6.2	-1.7
Cc1ccc(-c2cn3cccnc3n2)cc1	12.1	14.2	2.7	-0.9	-9.9	i	0.665	-5.3	2.0
COc1ccc(C(CNC(=O)Cc2cc(OC)c(OC)c(OC)c2)N2CCCC2)cc1 (stereo not drawn)	.	.	.	0.4	-5.5	.	0.705	3.8	1.7
COc1ccc2nc(C)cc(Nc3ccc(C(=O)O)cc3)c2c1	8.4	-0.6	1.1	7.0	-6.1	.	0.687	5.4	3.7
CCOC(=O)c1[nH]c2ccc(OC)cc2c1NC(=O)CCN1CCCC(C)C1 (stereo not drawn)	.	.	.	-64.0	.	.	0.79	0.3	0.3
Cc1nc(N)nc(Cl)c1Cc1ccc(Cl)cc1	0.5	0.2	-0.4	5.6	-1.4	i	0.717	-3.8	-0.3
Cc1nnc2sc(SCc3ccc(Br)cc3)nn2c1=O	7.7	10.2	-4.9	3.8	48.9	i	0.725	5.1	-1.8
CN(c1ccccc1)S(=O)(=O)c1ccc(NC(=O)c2cccs2)cc1	6.8	3.3	-1.6	0.7	1.3	i	0.658	-23.7	-3.9
COc1cc(C(=O)N2C[C@H]3CON(C)[C@H]3C[C@H]2c2ccc(N3CCCCC3)cc2)cc(OC)c1OC	22.8	15.1	8.1	.	.	i	.	.	29.2
C=CCc1c(C)nc(-c2ccccc2)nc1N/N=C/c1ccccc1	.	.	.	.	-22.8	i	.	-7.2	-2.3
O=C1NC(c2cccs2)C(C(=O)c2ccccc2)C(O)(C(F)(F)F)N1 (stereo not drawn)	.	.	.	4.7	-2.2	.	0.69	2.6	0.3
COC(=O)[C@@H]1[C@H](CCc2ccccc2)NC(=O)N(Cc2ccccc2)[C@@H]1C	3.5	-3.7	0.1	.	1.4	i	.	-5.7	-3.8
Cc1csc(N/N=C/c2ccc([N+](=O)[O-])cc2)n1	6.3	4.9	1.4	.	21.2	i	.	-1.4	3.5
CCOC(=O)N1CCN(C(=O)c2ccccc2NC(=O)c2ccc(Br)cc2)CC1	-9.7	-5.2	-0.5	-1.9	-13.7	i	0.669	-2.1	-0.3
COCCNC(=O)c1cc(-c2ccccc2)nn1CC1CC(c2cccc([N+](=O)[O-])c2)=NO1 (stereo not drawn)	.	.	.	3.0	-7.6	.	0.66	-3.2	1.2

Further results.
SMILES	rRNA inh HTS	rRNA inh HTS OD600	rRNA inh HTS RFP	UCH37 inh	ALR inh	FGF22 binding	E coli growth	Beta2AR agonist	HNF4A DNA FP
O=C(c1ccco1)N1CCN(c2ncnc3c(-c4ccccc4)nsc23)CC1	.	.	.	-8.5	5.1	.	0.72	4.8	-27.4
Cc1ccc(NC(=O)Nc2ccccc2C(N)=O)cc1	6.4	10.5	0.8	.	-0.2	i	.	-7.2	-4.0
CC1=C(C(=O)N(C(C)C)C(C)C)CC(CC(=O)NCCCN(C)C)C(=O)N1CCC1=CCCCC1 (stereo not drawn)	2.5	10.1	-0.9	.	.	i	.	.	-3.1
COc1ccc2c(c1)c(=O)oc1cc(OC(C(=O)O)c3ccccc3)ccc12 (stereo not drawn)	-24.8	-61.9	-11.4	i	4.4	i	0.687	13.4	-3.8
CCC(Sc1ccc2nnc(-c3ccc(F)cc3)n2n1)C(=O)O (stereo not drawn)	.	.	.	-36.5	.	.	0.701	2.8	0.7
CCOC(=O)c1c(NC(=O)COC(=O)c2ccc([N+](=O)[O-])cc2)sc(C(=O)N(C)C)c1C	11.0	8.6	-1.1	3.7	-22.0	i	0.68	2.2	-0.3
CC(C)(C)S(=O)(=O)c1cnc2c(-c3ccc(F)cc3)cnn2c1N	.	.	.	-49.7	-14.8	.	0.706	-3.6	-1.7
Cc1cc(C)nc(SCC(=O)NCC2COc3ccccc3O2)n1 (stereo not drawn)	5.2	2.7	-1.3	1.4	-3.2	i	0.666	14.0	-4.6
CC(=O)c1cccc(NC(=O)CCS(=O)(=O)c2cccc3nonc23)c1	.	.	.	0.4	1.5	.	0.665	-2.1	1.2
O=C1NC(=S)S/C1=C\c1ccc2ccccc2c1	-3.0	-0.9	6.2	.	-3.3	i	.	13.2	4.9
O=C(c1cccc2ccccc12)C1CCCN(C(=O)CCCn2cncn2)C1 (stereo not drawn)	-1.3	2.7	0.9	-0.9	-23.4	i	0.68	-0.9	2.6
COC(=O)Cc1c(O)ccn(CCc2c[nH]c3ccccc23)c1=O	10.1	-3.2	4.0	1.5	.	i	0.693	-5.5	5.4
O=C(NCCCc1ccncc1)C1CCC(=O)N(Cc2cccc(C(F)(F)F)c2)C1 (stereo not drawn)	-1.7	11.9	1.0	2.8	-10.9	i	0.69	-9.5	6.8
c1ccc2cc(CCCc3cc4ccccc4cn3)ncc2c1	-29.7	-38.0	0.8	1.8	2.2	i	0.637	-3.6	1.4
CCn1c(NC(=O)c2ccc(F)cc2)c2ccccc2nc1=O	.	.	.	-14.4	60.1	.	0.708	-5.4	-2.2
Cc1ccc2nc(SCC(=O)NCCc3ccccc3)nc(=O)n2c1	5.4	12.1	1.1	-28.0	5.1	i	0.651	-3.7	1.6
Cc1ccc(NCc2ccc(O)c3ncccc23)cc1	17.4	18.5	3.1	6.3	-21.4	.	0.629	-1.6	0.5
O=C(CSc1nnc2ccccn12)NC(=O)c1cccc([N+](=O)[O-])c1	8.4	14.3	1.4	-3.7	.	.	0.715	-8.2	-5.7
CCOc1ccc2nc(SCC(=O)Nc3ccc4c(c3)OCO4)sc2c1	.	.	.	4.1	-0.4	i	0.717	-8.6	-5.9
CCCCNC(=O)C1(C)CCN1C(=O)c1c(F)ccc(C)c1F (stereo not drawn)	11.3	22.6	2.5	.	.	i	.	.	-0.4
Cc1cc(NC(=O)COC(=O)Cn2[nH]c(=O)c3ccccc3c2=O)c([N+](=O)[O-])cc1C	16.4	16.0	1.4	.	-0.5	i	.	-5.1	6.3
C/C(=N/Nc1ccc([N+](=O)[O-])cc1)c1c[nH]c2ccccc12	8.0	12.0	1.8	.	55.2	i	.	-138.7	70.0*
CC(C)CC(N)c1csc(NC(=O)NCCc2ccccc2)n1 (stereo not drawn)	3.0	-30.0	33.7	.	.	i	.	.	-5.1
O=c1cc(O)n(-c2ccccc2F)c(=S)[nH]1	6.2	11.2	7.4	1.5	-5.7	.	0.68	4.9	3.8
Cc1cc(CNC(=O)CC2C(=O)NCCN2CC(c2ccccc2)c2ccccc2)on1 (stereo not drawn)	17.5	6.5	0.3	2.5	1.7	.	0.695	-3.6	-6.6

(cont.)
SMILES	rRNA inh HTS	rRNA inh HTS OD600	rRNA inh HTS RFP	UCH37 inh	ALR inh	FGF22 binding	E coli growth	Beta2AR agonist	HNF4A DNA FP
C=CCC[C@@H](Cc1ccc(F)cc1)C(=O)OC[C@@H]1CCCN1C(=O)[C@@H](CC=C)CC(=O)N[C@@H](CO)Cc1ccccc1	-2.9	-14.7	4.6	0.9	-7.0	i	.	3.5	0.5
Oc1ccccc1-c1nc2cnccn2c1Nc1ccc2c(c1)OCCO2	-32.5	-13.3	35.5	0.7	68.6	i	0.675	0.6	0.0
O=C(NN/C(=N/S(=O)(=O)c1ccc(Cl)cc1)c1ccccc1)c1cccc(Cl)c1	6.7	1.8	-2.3	7.0	-3.1	i	0.657	1.6	4.1
Cc1ccc(S(=O)(=O)N2CCN(C(=O)CCC(=O)N3CCc4ccccc43)CC2)cc1	.	.	.	0.7	-10.0	.	0.755	8.6	-0.1
Cc1cc(C)nc(NS(=O)(=O)c2ccc(NC(=O)c3cccs3)cc2)n1	.	.	.	3.6	.	.	0.721	-6.0	0.6
CC(=O)C1=C(O)C(=O)N(CC(=O)O)C1c1ccccc1Cl (stereo not drawn)	.	.	.	5.2	-10.2	.	0.667	1.3	1.4
O=S(=O)(c1ccc2oc(=S)[nH]c2c1)N1CCOCC1	0.7	1.4	-2.0	3.1	61.5	i	0.652	0.8	1.1
COc1cc(C2C(C(C)=O)=C(O)C(=O)N2Cc2ccccc2)ccc1O (stereo not drawn)	4.0	3.5	-0.8	7.5	6.4	i	0.666	2.8	2.1
Cc1ccc(OCCn2c(=O)sc3ccccc32)cc1	.	.	.	0.4	-17.2	.	0.735	6.0	2.0
Cc1ccccc1-n1nnnc1-c1ccccc1	.	.	.	3.2	-2.4	.	0.698	-2.1	4.4
CCN(CC)C(=O)[C@H]1C[C@H](CC(=O)NCc2cccc(C(F)(F)F)c2)C(=O)N2CCc3c([nH]c4cc(-c5ccco5)ccc34)[C@]12C	.	.	.	-23.3	.	.	0.674	-2.3	7.7
CC1CCC(NC(=O)CSc2nncn2C)CC1 (stereo not drawn)	3.3	11.2	1.0	3.9	1.7	i	0.717	0.6	-0.7
COC(=O)c1ccc2nc(-c3cccc(Cl)c3)c(Cc3ccsc3)n2c1	-8.7	-9.0	-4.2	.	.	i	.	.	2.5
O=C(c1cccc(COc2ccc(Cl)cc2Cl)c1)N1CCN(c2ccccn2)CC1	.	.	.	4.6	-6.6	.	0.724	-10.3	0.0
O=C(NCc1ccccc1)C(c1ccc(F)cc1)N(C(=O)c1csnn1)C1CC1 (stereo not drawn)	.	.	.	-0.6	-17.1	i	0.651	1.3	-1.0
N#Cc1c(N)n[nH]c1Cc1cccc2ccccc12	1.7	13.5	0.6	1.7	2.6	i	0.686	-2.2	-2.9
O=C1COc2ccc(C(=O)COc3ccc([N+](=O)[O-])cc3)cc2N1	0.1	6.8	6.2	5.6	-2.7	i	0.75	-2.5	-5.6
COc1ccc(Cl)cc1N1CCN(CCNC(=O)Nc2ccccc2C)CC1	.	.	.	.	-6.2	.	0.644	23.4	-0.2
CCOC(=O)Cn1c(-c2nonc2NC(=O)c2ccccc2F)nc2ccccc21	.	.	.	-8.4	.	.	0.718	-3.2	13.4
